MT1-MMP act inh = MT1-MMP (human) activation inhibition; P50281; hit rate 0.061% among 360,000; GFP/RFP ratio change, % at 20 µM; AID 651647; HT1080 RFP-PRO-GFP cells, GFP/RFP ratio fluorescence, overnight; percent of plate control window, DMSO zero;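 active = GFP/RFP ratio change of at least 30% with cell ATP level not reduced by more than half and red fluorescence within 50% of control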; also: strong numbers were not always called active
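Assay system: HT1080 RFP-PRO-GFP cells. Benchmarks: DMSO vehicle wells and RFP-L50D-GFP reporter cell wells. Times: overnight cell settling, then overnight compound exposure, 37 °C, 5% CO2. Compound: 20 µM single dose, 1% DMSO. Read-out basis: GFP/RFP fluorescence ratio.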
Rce1 inh = blocks yeast Ras-converting enzyme; yeast membranes, quenched prenylated peptide cleavage fluorescence; calls only; hit rate 0.27% among 290,000; AID 2563;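 active = fall in fluorescence gain of 50% or more versus controls, with final raw signal at or below 3038400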;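 also: plate controls were neutral control wells for no effect and wells lacking membranes for full effect; tested at 10 µM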
PABP polyA inh = PABP-poly(A) binding inhibition; P11940; PABP-poly(A) RNA binding, fluorescence polarization; inhibition, % at 35 µM; hit rate 1% among 290,000;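 active = 50% or more with normal probe brightness, or confirmed in later tests; about a fifth of its hits are not listed in these tables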;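 also: calls also rest on retests at 20 µM and on dose response follow-up; controls were probe without protein and protein plus probe with vehicle; some compounds called inactive have numbers as strong as hits; many hits fall short of the cut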
Target sequence (P11940 whole entry, looked up): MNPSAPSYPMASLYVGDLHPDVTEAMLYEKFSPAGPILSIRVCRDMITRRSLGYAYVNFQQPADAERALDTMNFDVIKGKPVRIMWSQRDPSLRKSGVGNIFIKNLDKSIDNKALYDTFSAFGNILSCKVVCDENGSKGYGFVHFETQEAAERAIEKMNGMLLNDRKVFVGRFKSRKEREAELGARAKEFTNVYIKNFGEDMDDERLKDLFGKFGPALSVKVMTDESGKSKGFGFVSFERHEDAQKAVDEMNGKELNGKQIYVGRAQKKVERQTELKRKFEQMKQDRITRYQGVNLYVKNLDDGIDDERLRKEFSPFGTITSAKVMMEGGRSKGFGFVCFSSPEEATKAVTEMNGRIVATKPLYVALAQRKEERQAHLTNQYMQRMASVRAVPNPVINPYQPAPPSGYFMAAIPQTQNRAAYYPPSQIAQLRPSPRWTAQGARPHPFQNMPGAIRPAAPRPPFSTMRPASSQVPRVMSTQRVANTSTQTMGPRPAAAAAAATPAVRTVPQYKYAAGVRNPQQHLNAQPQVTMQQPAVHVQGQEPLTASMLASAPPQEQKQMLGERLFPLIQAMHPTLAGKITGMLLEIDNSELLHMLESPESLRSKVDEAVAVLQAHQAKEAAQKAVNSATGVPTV
HIV Env fusion = blocks HIV Env-driven cell-cell fusion | HeLa-JRFL Env/CEM21 cell fusion, luciferase | inhibition, % at 12.3 µM | hit rate 1.1% among 360,000;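 active = mean replicate inhibition score of at least 50 and every replicate individually at or above 50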;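 also: 0% = plate neutral controls and 100% = maraviroc near 300 nM; one replicate is shown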
eIF4H FP inh = inhibitors of RNA binding by human eIF4H; Q15056; eIF4H fluorescence polarization binding assay; inhibition, % at 35 µM; hit rate 0.94% among 290,000; AID 2012;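 active = 50% or more with normal probe brightness, or confirmed in later tests; about a fifth of its hits are not listed in these tables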;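 also: calls also rest on retests at 20 µM and on dose response follow-up; 0% = protein and probe with vehicle and 100% = probe without protein; strong numbers were not always called active; many hits fall short of the cut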
UUG fidelity = modulators of start codon recognition fidelity in yeast; S. cerevisiae UUG-firefly luciferase reporter, luminescence/redox ratio; activity score, % at 18.7 µM; hit rate 0.13% among 350,000;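 active = replicate mean at a twofold rise or more, about +100% in these data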;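 also: firefly luciferase made from a UUG start codon reports start codon fidelity; reporter light over untreated wells divided by growth signal over untreated wells; some hits fall short of that in this replicate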
CSC inhib = cancer stem cell inhibition. cancer stem cell-like cells viability, luminescence. inhibition, % at 7.5 µM. hit rate 1.1% among 300,000. AID 2717;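 active = mean at 75% or more and at least half the replicates too; tested in HMLE shEcad cells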;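 also: 0% = median of negative and 100% = median of positive control wells; the first replicate is given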
eIF4H FP inh retest = further read-out of eIF4H FP inh, marked with its call; inhibition, %; compound at 20 µM; confirmation average;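 mean of two retest wells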
PABP polyA inh retest = recorded beside PABP polyA inh, whose call it bears; inhibition, %; compound at 20 µM; confirmation repeats;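 mean of two retest wells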
MT1-MMP act inh RFP = second read-out of MT1-MMP act inh, no call of its own (marks repeat the call); RFP signal change, %; measured here: RFP expression control read;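 0 = vehicle wells; hits needed this value within 50% of zero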
Active calls of the source: *; i = inactive; x = not tested or not shown; + = active, no number. Hits appear at their usual frequency; 2.9% or so of the library scored in one or more.

SMILES | MT1-MMP act inh | MT1-MMP act inh RFP | Rce1 inh | PABP polyA inh | HIV Env fusion | eIF4H FP inh | UUG fidelity | CSC inhib | others
CN(Cc1ccc(F)cc1)Cc1nc(-c2cnccn2)no1 | 1.4 | 4.2 | i | -2.8 | 13.9 | -4.2 | x | x
C#CCNC(=O)C1=C[C@@H](c2ccc3c(c2)OCO3)C[C@@H](OCCCCO)O1 | 0.2 | 0.0 | i | x | -10.9 | x | -7.2 | -12.9
CCSc1nnc2ccc(-c3ccc(C)cc3)nn12 | -0.2 | 3.6 | i | 4.9 | -7.5 | -7.0 | -13.3 | 0.0
CN(C)C(=S)N=Nc1[nH]c2ccccc2c1O | x | x | i | -12.3 | -8.7 | -16.5 | x | 10.1
CC[C@@]12C(=O)N(c3ccccc3)C(=O)N1[C@H](c1ccc(OC)cc1)[C@@H]1C(=O)N(C(C)(C)C)C(=O)[C@@H]12 | -2.6 | 0.7 | i | x | 73.2* | x | -13.9 | 16.8
O=C(CSc1ccc2nnc(-c3ccccn3)n2n1)Nc1nccs1 | 1.2 | -1.4 | i | 0.5 | -11.7 | 9.9 | -36.3 | -4.0
O=C(c1ccc(CNc2c(N3CCCC3)c(=O)c2=O)cc1)N1CC=C(c2ccccc2)CC1 | 5.4 | -8.0 | i | 0.9 | 19.6 | -1.9 | 9.2 | -1.5
CC1(C)CCC(=O)N2CC[C@H]3c4cc5ccccc5nc4C[C@@H]1[C@H]32 | -3.2 | -0.2 | x | x | 0.0 | x | 0.1 | x
O=C(/C=C/c1ccncc1)c1ccc2c(c1)OCCO2 | 3.6 | 0.2 | i | 1.5 | 9.7 | 3.6 | x | 14.7
CC1(C)CC(=O)C(C=NCc2cccnc2)=C(O)C1 | 7.3 | 2.0 | i | -2.0 | 5.3 | 0.6 | -24.5 | 0.2
O=C(c1ccccc1)N1CCC(CC2CC(c3cccc(Br)c3)=NO2)(C(=O)NCC2CCCCC2)CC1 (stereo unspecified) | 6.9 | -4.8 | i | -12.4 | x | -13.3 | -11.7 | 11.2
CN(Cc1ccccc1)C(=O)COC(=O)/C=C/c1ccco1 | -1.1 | 4.4 | i | 25.0* | -21.5 | 82.4* | x | -12.0 | eIF4H FP inh retest=92.3*;PABP polyA inh retest=84.5*
Cc1ccc(NC(=O)C2(C)CCN2CCc2ccccc2)cc1 (stereo unspecified) | -1.0 | -1.4 | x | x | -24.5 | x | -9.6 | x
CC#CC(=O)NCC1(N(C)Cc2ccccc2)Cc2ccccc2C1 | 2.5 | 2.1 | i | 12.6 | -1.0 | -1.9 | -5.7 | -8.1
Cc1cccc(/C=N/NC(=O)c2c(-c3ccccc3)noc2C)c1O | -21.9 | -12.5 | x | 0.0 | 23.4 | 6.0 | 7.7 | -12.1
COc1ccc(CN2CCNC(=O)C2CC(=O)NCc2cn3ccc(C)cc3n2)c(OC)c1 (stereo unspecified) | 0.8 | 4.4 | i | 11.0 | -6.0 | 8.7 | -2.7 | -4.8
CCCCCCc1ccc(N2C[C@H](CCCCC)[C@@H](CC(=O)NCc3ccc(OC)cc3)C2=O)cc1 | -3.2 | -10.6 | i | 5.2 | 35.7 | 7.7 | -15.4 | 66.7
COc1ccc(NC(=O)CSCC(=O)Nc2cc(Cl)ccc2N2CCCC2)cc1 | 1.1 | 0.3 | i | 11.6 | x | 9.6 | -18.7 | -19.7
CN(C)CCCNC(=O)C(=O)NCC1OCCN1S(=O)(=O)c1cccs1 (stereo unspecified) | -1.2 | 0.0 | i | 53.4 | -12.6 | 32.4 | -6.5 | -3.9 | eIF4H FP inh retest=15.0;PABP polyA inh retest=21.3
Cc1ccccc1NC(=O)c1ccc2c(c1)C(=O)N(CCC(C)C)C2=O | 3.9 | -1.0 | i | 9.9 | x | 5.3 | -14.2 | -4.5
O=c1cc(O)c2c(=O)n(C3CCCCC3)c3ccccc3c2o1 | -2.4 | -2.1 | i | 10.3 | 25.8 | 24.1 | -18.8 | -3.0
CCOC(=O)C1CCN(C(=O)c2sc3nc(C)nc(N4CCC(C)CC4)c3c2C)CC1 | -8.2 | -6.8 | i | 9.7 | 16.2 | -2.7 | 1.0 | -4.8
COCCCN=C1NN=C(c2cc(C)n(-c3ccccc3)c2C)CS1 | -3.3 | 1.5 | i | -5.9 | -60.6 | 16.1 | -14.6 | -6.5
O=C(Nc1ccn(Cc2c(F)c(F)cc(F)c2F)n1)c1ccc(COc2ccc(Cl)cc2Cl)o1 | -8.3 | -16.5 | i | -10.5 | 31.2 | 1.0 | -5.4 | 15.2
CCOC(=O)C(CCCOc1cccc(OC)c1)C(=O)OCC | 3.8 | 0.3 | i | 1.0 | x | -2.6 | -9.7 | -11.4
COc1ccc(Cn2c(S(=O)(=O)CC(N)=O)nc3ccccc32)cc1[N+](=O)[O-] | x | x | i | 3.4 | x | -24.4 | x | -9.3
Cn1c(SCC(=O)NCc2ccc3c(c2)OCO3)nc2scc(-c3cccs3)c2c1=O | -7.9 | -8.6 | i | 0.8 | 7.3 | 12.6 | -2.2 | -7.4
CCOC(=O)C1CCN(S(=O)(=O)Cc2ccccc2)CC1 | -0.4 | 2.3 | i | 2.0 | x | 10.8 | x | -8.8
Cc1cccc(N(Cc2cc3ccccc3[nH]c2=O)S(C)(=O)=O)c1 | -0.2 | -1.0 | i | -3.3 | 5.6 | 1.0 | -21.1 | 7.5
Cc1ccc(Nc2cc(C)c3c(O)cccc3n2)cc1C | -0.4 | -8.5 | i | 6.1 | -115.5 | 1.8 | -40.6 | 39.7
Cc1ccc(NC(=O)COc2ccccc2CNC(C)(C)CC(C)(C)C)cc1 | -17.4 | -10.1 | i | 2.5 | 16.5 | -8.4 | -16.6 | 12.5
COc1cc(/C=C2\SC(=O)NC2=O)ccc1Oc1ccc([N+](=O)[O-])cc1[N+](=O)[O-] | -4.1 | -15.2 | i | 17.8 | -2.3 | 47.2 | x | 46.1
COc1ccc(NC(=O)C(NC(C)=O)C(=O)NCc2ccccc2Cl)cc1 (stereo unspecified) | -0.5 | -0.6 | i | -8.7 | x | -3.1 | -1.8 | 1.9
O=C1c2cc(F)ccc2OC2(CCNCC2)C12CC(c1ccccc1)=NO2 (stereo unspecified) | 0.1 | 6.9 | i | -15.6 | 13.9 | -5.6 | -2.6 | 4.3
O=c1cc(O)c(-c2ccc(Cl)cc2)c(Cl)[nH]1 | -0.7 | 2.3 | i | -0.2 | -21.5 | -5.7 | x | -8.9
O=C(CSCc1c(Cl)cccc1Cl)NCc1ccco1 | 2.8 | -0.7 | i | 5.0 | x | 8.1 | -1.4 | 3.1
O=C(NCCc1ccccn1)c1cccnc1Oc1ccc(Cl)cc1 | -2.1 | 0.5 | i | 9.9 | 15.0 | 5.5 | x | -7.0
CCC(C)NC(=O)C1(O)c2cc(Br)ccc2NC(=O)N1c1cccc(OC)c1 (stereo unspecified) | -0.9 | 0.6 | i | -8.8 | -166.4 | 10.5 | -11.1 | -3.9
COC(=O)c1cccc(S(=O)(=O)N2CCC(C)CC2)c1 | 1.3 | 2.4 | i | 1.3 | -32.0 | -4.6 | -5.2 | -14.6
Cn1c(SCC(=O)NCC2CCCO2)nnc1-c1ccc(S(=O)(=O)N2CCCC2)cc1 (stereo unspecified) | -3.0 | 3.0 | i | 2.2 | x | 0.0 | -5.4 | -7.6
Nc1ccc(Sc2ccc([N+](=O)[O-])cc2)cc1 | 0.8 | 2.0 | i | -13.1 | 22.3 | -1.5 | x | 6.3
N/C(=N\OC(=O)c1ccccc1)c1ccn[nH]1 | 1.2 | 2.0 | i | -3.0 | -53.5 | 10.2 | -60.9 | -0.8
COc1cc(OC)cc(-c2ncc3ccccn23)c1 | -4.6 | -0.9 | + | 16.4 | x | 23.4 | -17.2 | -5.4
CN(CC(=O)Nc1cccc(C(F)(F)F)c1)C1=NS(=O)(=O)c2ccccc21 | 3.9 | 0.9 | x | x | 5.7 | x | -24.5 | -1.5
O=C1CC[C@@H]2CC3(C[C@@H]4CCN1[C@H]24)Nc1ccccc1NC3=NC1CCCCC1 (stereo partly specified) | -0.4 | 3.7 | x | x | -5.0 | x | 9.2 | x
N#C/C(=C\c1ccc(O)cc1)c1nc2ccccc2o1 | -130.1 | 1.2 | i | -16.2 | -42.9 | 1.8 | 3.3 | 8.6
Cc1cc(C)c(C(=O)N(CCN(C)C)CC2CCCN(Cc3ccccc3F)C2)o1 (stereo unspecified) | 0.6 | 4.0 | i | 15.5 | 1.0 | 4.0 | -7.6 | 1.6
Cc1ccsc1C(=O)N1CCCC(N2CCN(c3cccc(Cl)c3)CC2)C1 (stereo unspecified) | -2.5 | -6.0 | i | -8.0 | 13.3 | -6.6 | -12.6 | -7.1
COc1ccc(S(=O)(=O)N2CCc3ccccc3C2)cc1C(=O)O | 0.2 | 2.2 | i | -0.6 | 8.1 | 6.7 | 8.7 | 1.0
COc1ccc(OCCCC(=O)Nc2nc(C)c(C(C)=O)s2)cc1 | 5.5 | -0.1 | i | 4.7 | 4.5 | -5.3 | x | 12.6
O=C(CN1C(=O)CSc2ccc(S(=O)(=O)N3CCOCC3)cc21)NCc1ccc(Cl)cc1 | -0.5 | -0.4 | i | x | 4.2 | x | -13.2 | -8.4
O=C(Nc1cccc(C(=O)O)c1)/C(=C\c1ccc2c(c1)OCO2)NC(=O)c1ccccc1 | 8.7 | 7.1 | i | -0.1 | -12.0 | 5.7 | -11.6 | 8.9
Cc1nc2cc(C(F)(F)F)ccc2n1C1CCN(CC(=O)N2CCCC2)CC1 | -0.8 | 0.7 | i | 2.3 | 5.0 | 3.2 | x | 8.3
N#C/C(=C\c1cccc(O)c1)C(=O)Nc1ccc2c(c1)OCCO2 | 1.0 | -0.9 | i | 8.0 | -34.5 | -2.5 | -16.8 | 4.6
O=C(NN=C1CCCCCC1)c1c[nH]c2ccccc12 | -6.0 | -2.8 | i | 10.3 | -11.1 | -4.7 | -12.6 | -8.3
NS(=O)(=O)c1cccc(NC(=S)NCc2ccc3c(c2)OCO3)c1 | 4.3 | 1.4 | i | -6.0 | 11.1 | -2.0 | -21.9 | -4.4
CS(=O)(=O)N(CC(=O)Nc1ccccc1-c1ccccc1)c1cccc(F)c1 | -5.1 | -4.8 | i | -6.2 | -4.9 | -0.9 | 6.8 | x
Cc1cc(C)cc(NC(=O)CN2CCN(CCN=CC3=C(O)CC(c4ccc(Cl)cc4)CC3=O)CC2)c1 (stereo unspecified) | -0.5 | 2.5 | i | -9.6 | 8.4 | -15.0 | -4.0 | -0.5
CCCC/C(C)=N/NC(=O)NC1CCCCC1 | -0.4 | 3.0 | i | 7.1 | -3.1 | 0.4 | x | -6.4
O=C(NCCOCc1ccc(Cl)cc1)c1ncn[nH]1 | -2.3 | -1.0 | i | 0.8 | x | 10.1 | -7.2 | 14.2
CCCOc1ccc(F)cc1-c1cc(C(=O)Nc2ccc(OC)c(OC)c2)[nH]n1 | 1.3 | -1.6 | x | x | 15.3 | x | -5.2 | x

3 entries picked at random from the list so far:
SMILES | MT1-MMP act inh | MT1-MMP act inh RFP | Rce1 inh | PABP polyA inh | HIV Env fusion | eIF4H FP inh | UUG fidelity | CSC inhib | others
CCCOc1ccc(F)cc1-c1cc(C(=O)Nc2ccc(OC)c(OC)c2)[nH]n1 | 1.3 | -1.6 | x | x | 15.3 | x | -5.2 | x
O=C(CN1C(=O)CSc2ccc(S(=O)(=O)N3CCOCC3)cc21)NCc1ccc(Cl)cc1 | -0.5 | -0.4 | i | x | 4.2 | x | -13.2 | -8.4
CC1(C)CC(=O)C(C=NCc2cccnc2)=C(O)C1 | 7.3 | 2.0 | i | -2.0 | 5.3 | 0.6 | -24.5 | 0.2

Compound activity (PubChem)
